FGF22 binding = FGF22 (human) thermal shift binding | Q9HCT0 | recombinant FGF22 thermal shift, SYPRO orange fluorescence; percent of sucrose octasulfate shift, DMSO zero | calls only at 9.99 µM | hit rate 1.5% among 340,000;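 active = melting point raised past a set limit in the mean and every replicate; three in four hits are not shown here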
Target sequence (Q9HCT0 whole entry, looked up): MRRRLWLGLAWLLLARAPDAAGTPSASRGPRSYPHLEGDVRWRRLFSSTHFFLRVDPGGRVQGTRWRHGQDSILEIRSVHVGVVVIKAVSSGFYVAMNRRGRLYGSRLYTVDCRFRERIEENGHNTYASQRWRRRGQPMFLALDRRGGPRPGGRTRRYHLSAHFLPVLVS
AF4-AF9 inh = blocks AF4 peptide binding to human AF9. P42568. hit rate 0.47% among 350,000. AlphaScreen, biotin-AF4 peptide binding to FLAG-AF9. inhibition, % at 10 µM. AID 651704;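 active = every replicate reaching a set inhibition limit, whatever the replicate mean, cut at about 25% in these data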;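 also: 0% = plate neutral control median and 100% = total signal loss; the record names both 10 and 1 µM as test concentration; the first replicate is given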
Target sequence (P42568 whole entry, looked up): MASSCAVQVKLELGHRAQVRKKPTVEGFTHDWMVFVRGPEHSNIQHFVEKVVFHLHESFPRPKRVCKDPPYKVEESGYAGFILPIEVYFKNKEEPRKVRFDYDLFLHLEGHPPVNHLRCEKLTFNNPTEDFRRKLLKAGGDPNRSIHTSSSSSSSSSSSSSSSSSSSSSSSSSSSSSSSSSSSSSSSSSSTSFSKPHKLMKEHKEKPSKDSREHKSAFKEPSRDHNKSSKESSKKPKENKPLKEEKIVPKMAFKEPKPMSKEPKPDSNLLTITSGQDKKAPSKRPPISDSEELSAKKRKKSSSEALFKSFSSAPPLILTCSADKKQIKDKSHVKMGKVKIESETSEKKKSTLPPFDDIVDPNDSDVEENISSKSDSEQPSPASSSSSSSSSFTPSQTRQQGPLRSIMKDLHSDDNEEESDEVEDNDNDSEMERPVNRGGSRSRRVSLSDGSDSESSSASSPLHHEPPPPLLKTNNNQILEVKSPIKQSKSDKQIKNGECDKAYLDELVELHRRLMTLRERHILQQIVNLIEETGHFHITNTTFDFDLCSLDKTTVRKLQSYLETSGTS
rRNA inh HTS = inhibits bacterial ribosomal RNA function over humanized ribosomes | E. coli WT GFP vs humanized-ribosome RFP mutants, fluorescence, 24 h; hits give low values; DMSO median 0, no signal -100 | GFP signal change (wild-type ribosome), % (test concentration not listed) | hit rate 1.6% among 350,000 | AID 720706;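 active = significant combined selectivity score with lowered wild-type GFP, culture density cut under 30%, mutant RFP and density less affected; inactive = any of these conditions unmet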; also: one replicate is shown; some compounds called inactive have numbers as strong as hits
rRNA inh HTS OD600 = further read-out of rRNA inh HTS, marked with its call; OD600 change, %; measured here: OD600 growth;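 optical density of the mix in the first replicate; 0 = DMSO median and -100 = no signal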
rRNA inh HTS RFP = further read-out of rRNA inh HTS, marked with its call; RFP signal change, %; measured here: RFP humanized mutant strains;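 first replicate; 0 = DMSO median and -100 = no signal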
The depositor's hits bear a star; i = inactive; & = joins results of further samples.

FGF22 binding	AF4-AF9 inh	rRNA inh HTS	rRNA inh HTS OD600	rRNA inh HTS RFP	compound
i	-0.9	19	6	5.3	Cc1ccc2c(CN3CCN(c4ccccc4)CC3)cc(=O)oc2c1
i	-0.1	2	0	-0.5	CCCNC(=O)C[C@@H]1C[C@@H]2c3cc(NS(C)(=O)=O)ccc3O[C@@H]2[C@@H](CO)O1
i	-9.1	2	3	-2.3	C[C@@H]1CCCCO[C@@H](CN(C)Cc2ccncc2)[C@@H](C)CN([C@@H](C)CO)C(=O)c2cc(NS(=O)(=O)c3ccccc3)ccc2O1
i	4.3	-2	2	-0.1	COCCN(C[C@@H]1N[C@@H](CO)[C@H]1c1ccc(-c2cccc(F)c2)cc1)C(C)=O
i	5.8	-1	-6	-0.8	CS(=O)(=O)Nc1ccc2c(c1)[C@H]1C[C@@H](CC(=O)NCC3CC3)O[C@H](CO)[C@H]1O2
i	-1.0	-1	1	0.7	CO[C@H]1CN(C)C(=O)c2ccc(NC(=O)C3CCCC3)cc2OC[C@H](C)N(C(C)=O)C[C@@H]1C
i	-0.3	0	5	-2.4	C[C@H](NC(=O)C[C@H]1CC[C@H]2[C@H](COc3ccc(NC(=O)C4CCOCC4)cc3C(=O)N2C)O1)c1ccccc1
i	-2.2	-1	-4	-2.0	COc1ccc2c3c([nH]c2c1)[C@@H](CO)N(Cc1ccccc1F)CC31CCN(C(=O)C2CC2)CC1
i	2.0	-1	1	1.6	CCNC(=O)Nc1ccc2c(c1)C(=O)N(C)[C@@H]1CC[C@@H](CC(=O)Nc3ccccc3)O[C@@H]1CO2
i	4.7	-47	-64	14	C[C@@H](NC(=O)C[C@@H]1CC[C@@H]2[C@H](COC[C@@H](O)CN2C(=O)Nc2cc(Cl)cc(Cl)c2)O1)c1ccccc1
i	-0.2	9	9	-2.9	CO[C@@H](CN(C)C(=O)c1cnccn1)[C@H](C)CN([C@@H](C)CO)S(=O)(=O)c1ccccc1
i	-0.4	4	4	0.9	Cc1noc(C)c1S(=O)(=O)Nc1ccc2c(c1)CC(=O)N([C@@H](C)CO)C[C@@H](C)[C@@H](CN(C)CC1CCCCC1)O2

Four entries from above, sorted by their value in rRNA inh HTS, descending.
FGF22 binding	AF4-AF9 inh	rRNA inh HTS	rRNA inh HTS OD600	rRNA inh HTS RFP	compound
i	-0.9	19	6	5.3	Cc1ccc2c(CN3CCN(c4ccccc4)CC3)cc(=O)oc2c1
i	-0.1	2	0	-0.5	CCCNC(=O)C[C@@H]1C[C@@H]2c3cc(NS(C)(=O)=O)ccc3O[C@@H]2[C@@H](CO)O1
i	-2.2	-1	-4	-2.0	COc1ccc2c3c([nH]c2c1)[C@@H](CO)N(Cc1ccccc1F)CC31CCN(C(=O)C2CC2)CC1
i	4.3	-2	2	-0.1	COCCN(C[C@@H]1N[C@@H](CO)[C@H]1c1ccc(-c2cccc(F)c2)cc1)C(C)=O

Only rRNA inh HTS and FGF22 binding, for 2 of the compounds above:
Structure	rRNA inh HTS	FGF22 binding
CS(=O)(=O)Nc1ccc2c(c1)[C@H]1C[C@@H](CC(=O)NCC3CC3)O[C@H](CO)[C@H]1O2	-1	i
CO[C@H]1CN(C)C(=O)c2ccc(NC(=O)C3CCCC3)cc2OC[C@H](C)N(C(C)=O)C[C@@H]1C	-1	i

Next section.
FGF22 binding	AF4-AF9 inh	rRNA inh HTS	rRNA inh HTS OD600	rRNA inh HTS RFP	compound
i	1.4	0	-4	3.1	CN1[C@@H]2c3ccc(C4=CCCC4)c(=O)n3C[C@@H]2[C@@H](CO)[C@@H]1C(=O)NCc1ccccc1F
i	1.9	4	-5	-1.4	COc1ccc(NC(=O)Nc2ccc3c(c2)C(=O)N([C@@H](C)CO)C[C@H](C)[C@@H](CN(C)S(=O)(=O)c2ccc(Cl)cc2)OCCCC[C@@H](C)O3)cc1
i	-15	1	-1	1.0	C[C@H]1CN([C@@H](C)CO)C(=O)c2cc(NC(=O)Cc3ccccc3)ccc2O[C@H]1CN(C)C(=O)Nc1cccc2ccccc12
i	0.1	7	4	-7.1	O=C(C[C@@H]1C=C[C@H](NS(=O)(=O)c2ccc(F)cc2)[C@H](CO)O1)N1CCC(Cc2ccccc2)CC1
i	-2.2	3	3	-0.5	C[C@H]1CN([C@@H](C)CO)C(=O)c2cccc(NC(=O)c3cnccn3)c2O[C@H]1CN(C)C(=O)Nc1ccccc1
i	-3.5	0	5	-1.1	CO[C@@H]1CN(C)C(=O)c2cc(NS(C)(=O)=O)ccc2OC[C@H](C)N(Cc2nccs2)C[C@H]1C
i	-1.4	3	1	-1.8	C[C@H]1CN([C@@H](C)CO)C(=O)c2cc(NC(=O)CCCN(C)C)ccc2O[C@H]1CN(C)CC1CCCCC1
i	2.0	1	2	0.7	C[C@@H]1CN([C@H](C)CO)C(=O)Cc2cc(NC(=O)Cc3cn(C)c4ccccc34)ccc2O[C@H]1CN(C)S(C)(=O)=O
i	-2.8	10	7	3.2	C[C@@H]1CN([C@H](C)CO)C(=O)c2cc(-c3cccc(C(=O)N(C)C)c3)cnc2O[C@H]1CN(C)C(=O)Cc1ccccn1
i	-4.8	-2	-6	-1.1	CCCNC(=O)N(C)C[C@@H]1Oc2ncc(C3=CCCCC3)cc2C(=O)N([C@@H](C)CO)C[C@H]1C
i	-3.2	-2	4	1.4	Cc1noc(C)c1NC(=O)N(C)C[C@@H]1OCCCC[C@H](C)Oc2ccc(NC(=O)Nc3ccc(F)cc3)cc2C(=O)N([C@@H](C)CO)C[C@@H]1C
i	-2.1	5	3	-0.6	CS(=O)(=O)N1CCCCN2[C@@H](CO)[C@@H](c3ccc(C4=CCCC4)cc3)[C@@H]2C1
i	0.9	-4	-7	-1.9	CCN1[C@@H]2c3ccc(-c4ccccc4F)c(=O)n3C[C@@H]2[C@@H](CO)[C@@H]1C(=O)NC1CCCC1
i	-1.8	2	11	-2.3	O=C(C[C@@H]1C=C[C@@H](NS(=O)(=O)c2ccccc2)[C@@H](CO)O1)NCc1ccncn1
i	1.1	-2	-18	1.6	O=C(C[C@H]1C[C@@H]2c3cc(NS(=O)(=O)c4ccc(F)cc4)ccc3O[C@@H]2[C@@H](CO)O1)NC1CCCCC1
i	-1.7	3	4	-1.3	C[C@@H]1CN([C@H](C)CO)C(=O)Cc2cc(NC(=O)CCN3CCOCC3)ccc2O[C@@H]1CN(C)S(C)(=O)=O
i	8.0	-5	-42	5.6	CCC(=O)N(C)C[C@H]1Oc2cc(C#CC3CCCC3)ccc2S(=O)(=O)N([C@@H](C)CO)C[C@@H]1C
i	-1.5	-2	0	-1.0	CC(C)NC(=O)N(C)C[C@H]1Oc2ccc(NS(=O)(=O)c3ccc(Cl)cc3)cc2C(=O)N([C@H](C)CO)C[C@@H]1C
i	-1.8	2	8	-3.7	O=C(C[C@@H]1C[C@H]2c3cc(NC(=O)CC4CC4)ccc3O[C@H]2[C@@H](CO)O1)NCc1ccc2c(c1)OCO2
i	0.1	5	18	-3.6	CO[C@H]1CN(C)C(=O)c2ccc(NC(=O)C3CCC3)cc2OC[C@@H](C)N(C)C[C@@H]1C
i	1.2	3	6	-2.0	CCCN1[C@@H]2c3ccc(-c4cccnc4)c(=O)n3C[C@H]1[C@H](CO)[C@H]2C(=O)NCCc1cn(C)cn1
i	-4.5	3	-5	-0.7	CC(C)NC(=O)N1[C@H](C(=O)N2CCC(Cc3ccccc3)CC2)[C@@H](CO)[C@@H]2Cn3c(cccc3=O)[C@@H]21
i	-2.9	0	5	-2.1	O=C(C1CC1)N1[C@H](CO)[C@@H]2c3ccccc3N(S(=O)(=O)c3ccccc3)C[C@@H]21
i	-2.6	0	2	0.0	CCCC(=O)Nc1ccc2c(c1)OC[C@@H](C)N(Cc1ccncc1)C[C@@H](C)[C@@H](OC)CN(C)C2=O
i	-2.6	0	-1	-0.4	COc1ccc(NC(=O)N(C)C[C@@H]2OCc3ccccc3-c3ccccc3C(=O)N([C@H](C)CO)C[C@@H]2C)c(OC)c1
i	-2.0	7	14	3.8	Cc1ccc(S(=O)(=O)N2C[C@H]3C(=O)C[C@@H](c4ccccc4)N(S(=O)(=O)c4ccc(C)cc4)[C@H]3C[C@H]2c2cccc3ccccc23)cc1
i	1.2	2	5	0.6	C[C@@H]1CN([C@H](C)CO)C(=O)Cc2cc(NS(=O)(=O)c3ccc(Cl)cc3)ccc2O[C@H]1CN(C)Cc1ccc(Oc2ccccc2)cc1
i	1.8	3	0	0.7	C[C@H]1CCCCO[C@H](CN(C)C(=O)NC2CCCCC2)[C@@H](C)CN([C@@H](C)CO)C(=O)c2cc(NC(=O)C3CCCCC3)ccc2O1
i	-0.2	-61	-78	-19	CO[C@@H](CN(C)C(=O)C1CCOCC1)[C@H](C)CN(C(=O)Nc1ccc(C(F)(F)F)cc1)[C@@H](C)CO
i	1.3	0	-1	0.4	CN(C)CC#Cc1ccc([C@@H]2[C@@H](CO)N3CCCCN(C(=O)Nc4ccc(F)cc4)C[C@@H]23)cc1
i	-1.0	-18*	-9.7*	5.1*	O=C(Cc1cccc(NC(=O)C2CCCN(C(=O)CCc3ccccc3)C2)c1)Nc1cccc(C(=O)N2CCCCC2)c1 (centres undefined)
i	1.5	-8	-21	-9.4	CC(C)c1ccc([C@@H]2O[C@H](CCc3ccccc3)Cc3[nH][nH]c(=O)c32)cc1
i	-3.2	4	0	-0.4	O=C(C[C@H]1CC[C@H](NC(=O)NC2CCCCC2)[C@H](CO)O1)NCc1ccccc1
i	3.0	-5	-21	3.5	C=C1C(=O)OC2CC1C(O)CC(C)=CCCC(C)=CC(O)CC2C (centres undefined)
i	-2.6	4	2	-2.0	O=C(C[C@@H]1CC[C@@H](NC(=O)c2cnccn2)[C@H](CO)O1)NCc1ccccc1F
i	-2.2	3	0	-2.7	COc1cccc(S(=O)(=O)N[C@H]2C=C[C@@H](CC(=O)NCc3ccc(F)cc3)O[C@@H]2CO)c1
i	-3.0&-0.5	6&-1	6&0	-4.5&1.1	COC(=O)N(C)C[C@H]1OCc2cnnn2CCCC(=O)N([C@@H](C)CO)C[C@H]1C
i	1.8&7.6&6.6	-3&-4	-4&3	-6.8&-0.2	C[C@H]1CN([C@@H](C)CO)S(=O)(=O)c2ccc(/C=C/c3ccccc3)cc2O[C@H]1CN(C)C(=O)NC1CCCCC1
i	-1.9	-1	1	0.2	C[C@H](CO)N1C[C@H](C)[C@H](CN(C)C(=O)[C@@H](Cc2ccccc2)N(C)C)OCc2ccccc2-c2ccccc2C1=O
i	-1.6	1	-9	0.7	Cc1noc(C)c1NC(=O)Nc1ccc2c(c1)C(=O)N([C@H](C)CO)C[C@H](C)[C@H](CN(C)CC1CCCCC1)O2
i	-3.5	4	3	-2.6	COCC#Cc1cnc2c(c1)C(=O)N([C@@H](C)CO)C[C@H](C)[C@@H](CN(C)C(=O)CCN1CCCCC1)O2
i	3.7	-3	-2	0.1	C[C@@H]1CCCCO[C@H](CN(C)Cc2ccncc2)[C@@H](C)CN([C@H](C)CO)C(=O)c2cc(NC(=O)c3ccccc3)ccc2O1
i	-1.9	-3	-5	-1.9	C[C@H](O)C#Cc1ccc2c(c1)O[C@@H](CN(C)C(=O)c1ccncc1)[C@H](C)CN([C@@H](C)CO)S2(=O)=O
i	-5.2	7	18	0.0	COCC#Cc1cnc2c(c1)C(=O)N([C@H](C)CO)C[C@@H](C)[C@@H](CN(C)C(=O)NC1CCCC1)O2
i	-0.9	2	-3	0.1	COc1ccc(CN(C)C[C@H]2Oc3ccc(NS(=O)(=O)c4cccs4)cc3CC(=O)N([C@@H](C)CO)C[C@H]2C)cc1
i	-1.9	3	12	0.7	COc1ccc(C#Cc2cnc3c(c2)C(=O)N([C@H](C)CO)C[C@H](C)[C@H](CN(C)C(=O)Nc2c(C)noc2C)O3)cc1OC
i	-2.7&0.5	-9&-2	-23&-4	8.3&-2.1	Cc1ccc(S(=O)(=O)Nc2cccc3c2O[C@H](CN(C)Cc2ccccc2)[C@H](C)CN([C@@H](C)CO)C3=O)cc1
i	1.1	4	-3	-1.7	O=C(Cc1ccccn1)NCC[C@@H]1CC[C@@H](NC(=O)Nc2ccccc2)[C@@H](CO)O1
i	2.6	-8	-12	0.1	O=C(C1CCCC1)N1[C@H](CO)[C@@H]2c3ccccc3N(S(=O)(=O)c3ccccc3)C[C@@H]21
i	-1.8	3	4	-1.4	CN1C(=O)c2cc(NC(=O)NC3CCCC3)ccc2OC[C@@H]2O[C@H](CC(=O)O)CC[C@H]21

Screening results: PubChem BioAssay, Broad Institute

Not all compounds are listed; count on the stated rates, not on these rows.
